Assay outcomes (PubChem BioAssay)
TRPML1 agonist: human mucolipin-1 channel agonism; Q9GZU1; TRPML1-expressing cells, Ca2+ dye fluorescence, FDSS; host cell line not named in the record; reference of the full effect not given here; activation, % (test concentration not listed); 410,000 tested, 0.12% active; AID 624414; in the data active = activation above about 50%; inconclusive = about 30% to 50%; inactive = below about 30%; note: 0% is about no effect; the text of the record puts the active cut at 80%
Target sequence (Q9GZU1 whole entry, looked up): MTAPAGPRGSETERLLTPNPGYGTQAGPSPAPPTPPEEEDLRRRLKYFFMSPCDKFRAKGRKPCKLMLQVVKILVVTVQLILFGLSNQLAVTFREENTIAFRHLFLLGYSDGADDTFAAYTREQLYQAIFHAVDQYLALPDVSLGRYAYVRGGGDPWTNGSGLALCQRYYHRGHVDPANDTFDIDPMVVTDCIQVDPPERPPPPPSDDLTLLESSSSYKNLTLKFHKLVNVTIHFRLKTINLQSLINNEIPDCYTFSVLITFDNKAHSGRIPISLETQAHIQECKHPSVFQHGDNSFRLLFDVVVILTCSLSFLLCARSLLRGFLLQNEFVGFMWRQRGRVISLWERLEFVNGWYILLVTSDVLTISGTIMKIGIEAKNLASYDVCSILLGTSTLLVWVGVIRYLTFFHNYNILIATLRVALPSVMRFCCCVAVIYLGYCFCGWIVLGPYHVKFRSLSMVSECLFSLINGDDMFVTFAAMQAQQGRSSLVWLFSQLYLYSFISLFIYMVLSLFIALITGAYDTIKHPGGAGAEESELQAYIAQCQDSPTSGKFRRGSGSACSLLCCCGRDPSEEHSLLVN
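Cells: TRPML1-DL, 1X Tet inducer, ~16 h at 37 degrees C/5% CO2. Dye: ABD Ca8 no-wash + quencher, 45-90 min RT. Read: 10 s baseline, compound add, 110 s agonist phase; 54-4 EC80 (4uM final), 110 s antagonist phase.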
TRPML1 blocker: inhibitors of human TRPML1 channel; Q9GZU1; activity change, negative = inhibition, % (no concentration beside the values); TRPML1-inducible cells, Ca2+ dye fluorescence, FDSS; active compounds read low; inhibition of EC80 agonist-evoked calcium signal; 390,000 tested, 0.02% active; AID 624415; in the data active means activity change below about -50%; inconclusive means about -30% to -50%; inactive means above about -30%;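 note: stimulus is agonist 54-4 at its EC80 concentration; % is set by controls: 0 for no effect and ±100 for the full control effect; compound concentration not given in the record; the text of the record puts the active cut at -80%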
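Tet-induced TRPML1-DL cells loaded with Ca8 no-wash calcium dye were read kinetically on FDSS. Compound addition was followed by EC80 agonist 54-4 (4 uM final); inhibition was read over 110 s.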
D2 ag: agonists of human D2 dopamine receptor (beta-arrestin); P14416; DiscoveRx PathHunter D2 beta-arrestin, luminescence, 90 min; 100% = 57 uM dopamine signal; activation, % (test concentration not listed); 360,000 tested, 0.084% active; AID 624465; in the data active = activation above about 40%; inconclusive = about 15% to 40%; inactive = below about 15%; note: compound concentration not given in the record; the text of the record calls up to 30% inactive
Target sequence (P14416 whole entry, looked up): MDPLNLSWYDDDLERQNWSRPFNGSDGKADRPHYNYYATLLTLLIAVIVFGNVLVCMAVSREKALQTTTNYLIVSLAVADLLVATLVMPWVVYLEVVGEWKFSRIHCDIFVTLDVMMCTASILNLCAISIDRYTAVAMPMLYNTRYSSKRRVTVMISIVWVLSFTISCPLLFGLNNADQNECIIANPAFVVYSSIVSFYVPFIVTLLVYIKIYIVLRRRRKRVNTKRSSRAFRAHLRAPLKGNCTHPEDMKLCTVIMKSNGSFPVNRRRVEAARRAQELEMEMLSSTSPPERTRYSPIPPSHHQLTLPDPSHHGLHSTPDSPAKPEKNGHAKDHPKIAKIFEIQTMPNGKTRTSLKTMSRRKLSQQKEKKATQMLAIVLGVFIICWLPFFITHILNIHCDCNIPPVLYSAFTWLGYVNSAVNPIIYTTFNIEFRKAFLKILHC
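Agonist mode: compounds alone added to overnight-plated D2 PathHunter cells for 90 min at 37 C, with 57 uM final dopamine (EC100) defining full response. Beta-arrestin recruitment detected by chemiluminescent reagent, read after 1 h at ambient temperature.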
CtBP-E1A blk: blocks the CtBP interaction with E1A. AlphaScreen GST-E1A/His-CtBP binding, 1536-well; active compounds read low; control for the full effect not named in the record. activity change, % (test concentration not listed). 340,000 tested, 0.49% active; in the data active means activity change below about -65%; inconclusive means about -30% to -65%; inactive means above about -30%; note: % is set by controls: 0 for no effect and ±100 for the full control effect
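Protein mix (5X: 125 nM each GST-E1A, His-CtBP) was incubated with pinned compound 2 h at 37 deg C in dark, in 50 mM Tris pH 8.0 buffer with 300 mM NaCl. Glutathione donor and nickel acceptor beads followed; AlphaScreen signal read after 1 h.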
Six1-Eya2 inh: Six1/Eya2 interaction inhibition; activity change, % (no concentration beside the values); 360,000 tested, 0.56% active; AlphaScreen GST-Six1/His-Eya2 binding, biochemical; active compounds read low; control for the full effect not named in the record; Q15475+O00167; in the data active = activity change below about -65%; inconclusive = about -30% to -65%; inactive = above about -30%; note: % is set by controls: 0 for no effect and ±100 for the full control effect
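Compounds are tested against tagged Six1 and Eya2 proteins bridged by glutathione donor and nickel acceptor beads; after a one-hour incubation at 37 °C without light, AlphaScreen emission is recorded.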
PINK1 modulator: modulators of PINK1 expression. PINK1 immunofluorescence, high-content cytometry, 24 h. Potency, µM (highest dose often 76.6 µM), for inactives: at the top dose activation (PINK1 increase), usual class: activators. 410,000 tested, 0.2% active; active = well fitted activation curve with a large enough effect; inconclusive = small, poorly fitted or top-dose-only effect; inactive = flat fitted curve, though single readings scatter; cell line not stated here;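 note: potency is the fitted concentration of half-maximal effect; % of control where 0% means no effect; nearly all actives have a fitted effect of over 65% in size; a mitochondrial uncoupler was the plate control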
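Stable cell line treated 24 h with compounds at 5 concentrations (CCCP controls), then fixed and immunostained for PINK1 plus nuclear and cell stains; PINK1 immunofluorescence quantified by laser-scanning microplate cytometry.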
* = called active by the depositor; ? = inconclusive; . = not tested or not shown; & = joins results of further samples; [ ] = remark or other dose. Compounds were not picked by outcome, and some 1% of all compounds hit somewhere here.

SMILES	TRPML1 agonist	TRPML1 blocker	D2 ag	CtBP-E1A blk	Six1-Eya2 inh	PINK1 modulator
COc1ccc(Nc2c3c(nc4ccccc24)CCC3)c(OC)c1	-0.9	19	3.6	-6	-14	?
Cn1nc(-c2ccccc2)c2cc([N+](=O)[O-])ccc21	2.8	33	0.5	-15	-9	4.2%
O=S1(=O)CCOC[C@H](c2ccccc2)N1Cc1cccc(Cl)c1	0.1&-0.4	-1	-3.1	38	-13	2.7%
COc1ccc(CCNc2oc(COc3ccc(Cl)cc3)nc2C#N)cc1OC	0.8	2	.	.	.	3.3%
CCC(C)(C)c1ccc(OCCCC[n+]2cccc(C)c2)c(C(C)(C)CC)c1	1.0	19	-6.0	-6	3	5.8%
CC1=C(C#N)C(NC(=O)C2CC2)(C(F)(F)F)C(=O)N1 (stereo unspecified)	0.2	-7	-3.4	6	-6	0.1%
Cn1c(=O)c2c(-c3ccccc3)n(-c3cc(Cl)c([N+](=O)[O-])cc3O)cc2n(C)c1=O	0.0	.	4.6	-7	-15	1.2%
CCN1CCN(c2ncnc3c2cnn3-c2cccc(C)c2)CC1	-0.2	-13	.	.	.	0.6%
O=C(COc1nc2ccccc2nc1N1CCOCC1)Nc1ccc(S(=O)(=O)N2CCCC2)cc1	-0.7	1	-1.8	-4	-3	-0.3%
CCC(=O)N1CCN(c2ccc(NC(=O)c3ccc4c(c3)OCO4)cc2)CC1	1.8	10	1.2	-1	2	-2.7%
O=C(CCCCn1c(=O)c2ccccc2n(Cc2ccccc2F)c1=O)NC1CCN(Cc2ccccc2)CC1	-0.5	53	-2.9	3	1	7.5%
O=C1O[C@@H](c2ccccc2)C[C@@H](O)[C@H](O)CCCCc2ccccc21	-0.5	.	.	-11	-14	-0.4%
COc1cccc(-c2ncc3ccccc3c2COC(=O)N2CCCCC2)c1	1.3	22	3.8	-25	-5	1.3%
Cc1ccc2c(=O)cc(C(=O)Nc3sc4c(c3C(=O)NCc3ccco3)CCC4)oc2c1	-0.8	-2	.	.	.	9.4%
C[C@H](CO)N1C[C@H](C)[C@@H](CN(C)C(=O)Nc2ccccc2)Oc2ccc(NC(=O)c3ccncc3)cc2C1=O	-0.3	-4	-1.7	0	20	0.1%
O=C(NCCCN1CCOCC1)c1nn2c(C(F)(F)F)cc(-c3ccco3)nc2c1Cl	-0.4	-14	-2.2	-2	-8	0.4%
CCCn1nnc(NC(=O)c2cccnc2Cl)n1	-0.6	4	0.0	-2	4	-3.0%
CCOc1cc(/C=C/C(=O)O)ccc1OCCO	0.0	-7	-0.5	.	5	-0.2%
C[C@@H]1COc2cccc(N3CCC[C@@H]3CO)c2S(=O)(=O)N1	-0.1	.	.	2	9	1.2%
COc1ccc(CCC(=O)NCCS(=O)(=O)N2CCN(c3ccc(F)cc3)CC2)cc1	-0.9	-12	0.8	2	3	12%
Cc1ccc(-n2nc(CO)c(C(=O)NCc3cccs3)n2)cc1	0.7	13	.	.	.	-1.3%
O=C(CN1C(=O)C2(SCC(=O)N2c2ccc(Cl)cc2)c2ccccc21)NCCc1ccccc1 (stereo unspecified)	2.0	-8	.	.	.	0.3%
O=C(CNC(=O)c1ccc(Br)cc1)OCc1cc([N+](=O)[O-])cc2c1OCOC2	-0.2	0	-4.7	-2	2	1.6%
O=C(CSc1n[nH]c(-c2ccccc2Cl)n1)NCc1ccc(F)cc1	-0.2	-17	.	.	.	1.2%
CCOC(=O)C1(CC/C(C)=N\NC(N)=O)CC(C)(C)OC1=O (stereo unspecified)	-1.0	16	-0.7	11	1	-0.6%
CCOC(=O)c1ccc(NC(=O)C2CCN(S(=O)(=O)CC)CC2)cc1	-0.6	-4	-3.3	4	-3	-1.8%
Cc1cccc2sc(N(CCCN(C)C)C(=O)COc3ccc(Cl)cc3)nc12	-0.8	26	-3.7	-8	-12	-1.5%
O=C(NCC1CC1)c1cc(-c2ccccc2)nn1CC1CC(c2cccc([N+](=O)[O-])c2)=NO1 (stereo unspecified)	0.0	14	1.0	.	-4	-0.2%
CCCOc1ccc(NC(=O)C2CC(=O)N3CCCN=C3S2)cc1 (stereo unspecified)	-0.1	12	0.6	1	-2	-1.7%[38.3 µM]
Cc1cccc(Nc2nnc(SCC(=O)NCc3cccs3)s2)c1C	0.6	7	-0.3	4	1	1.6%
COc1cccc(C(=O)OCCCOC(=O)c2cccc(OC)c2OC)c1OC	0.2	-12	4.4	2	-4	3.0%
O=C(NCc1ccccn1)C1CCCN(S(=O)(=O)c2cc(Cl)ccc2Cl)C1 (stereo unspecified)	0.0	-11	1.0	5	5	0.6%
O=C(NCCCN1CCOCC1)/C(=C/c1ccc(-c2cccc([N+](=O)[O-])c2)o1)NC(=O)c1ccccc1	-0.6	-13	1.1	-1	-13	2.8%
COc1ccc(C2CC(c3ccc(Cl)cc3)=NN2c2ccc(S(N)(=O)=O)cc2)cc1 (stereo unspecified)	-0.8	-12	-1.3	41	43	7.0%
Cc1cc(C)n(/N=C\c2c(O)ccc3ccccc23)c(=O)c1C(N)=O	0.2	-1	-3.1	-2	-1	-2.1%
CC(C)(C)C(=O)Nc1ccc(C(=O)NNC(=O)Cc2ccccc2)cc1	0.0	-6	-0.7	4	7	1.6%
Cc1c(NC(=O)c2cc(-c3ccccc3)nc3ccccc23)c(=O)n(-c2ccccc2)n1C	0.1	6	4.6	-1	-3	-0.4%
CCc1ccc(-c2nc(CS(=O)CC(=O)NCCCN3CCC(C)CC3)c(C)o2)cc1 (stereo unspecified)	0.2	23	-6.9	-6	-1	4.4%
COc1cccc(N2CCN(C(=O)c3cc(-c4ccc(F)cc4)[nH]c3C)CC2)c1	-1.6	5	0.1	-1	-22	5.7%
Cc1ccc(-c2csc(NC(=O)c3ccccc3Cl)c2C(=O)O)cc1	0.6	-9	-0.9	?	?	-1.3%
CN(C(=O)CC1C(=O)NCCN1Cc1ccc(F)c(F)c1)C1CCCCC1 (stereo unspecified)	-0.4	16	-1.2	0	16	2.0%
COCCNC(=O)C(=O)NCC(c1ccc2c(c1)OCO2)N1CCN(c2ccc(F)cc2)CC1 (stereo unspecified)	-0.2	10	-4.2	-5	3	0.4%
COc1ccc(C(=O)NC2CCCN(Cc3ccc(Cl)cc3)C2)c(OC)c1 (stereo unspecified)	0.1	-8	-7.9	2	-3	1.6%
CCOc1ccccc1CNC(=O)CNC(=O)c1cccs1	4.7	17	-3.2	.	2	-0.1%
Cc1ccc(C)c(S(=O)(=O)N2C(=S)NC(=O)C2C(C)C)c1 (stereo unspecified)	-0.9	-2	0.5	8	37	0.2%
O=C(CSc1nc2ccccc2c(=O)n1-c1ccc(F)cc1F)NC1CCS(=O)(=O)C1 (stereo unspecified)	-0.6	11	-1.1	1	1	1.1%
CC(=O)/C=C(/C)NC(Cc1c[nH]c2ccccc12)C(=O)O (stereo unspecified)	0.1&-0.7	-3&1	-2.3&-1.2	4&10	-2&2	1.8%
COc1cc(-c2nnc(SCC(=O)Nc3ccc(F)c(Cl)c3)o2)cc(OC)c1OC	-1.2	22	.	.	.	-0.6%
CNC(=O)c1cc(C)c(-c2ccccc2)s1	3.2	17	-1.9	1	-1	19%[38.3 µM]
CCn1c(CNC(=O)c2ccc(OC)cc2)nnc1SCC(=O)Nc1cc(C)ccc1C	0.3	-2	.	.	.	2.0%
O=C(Nc1ccc(C(=O)O)cc1)/C(=C\C=C\c1ccccc1)NC(=O)c1cccc(Br)c1	1.1	-3	-5.2	-5	-18	1.1%
Cc1cc(C(=O)NCCC2=CCCCC2)c(C)o1	-0.3	-3	2.8	-10	0	-1.8%[38.3 µM]
CCCN(c1ccccc1F)S(=O)(=O)c1ccc2c(c1)C(C)(C)C(=O)N2C	0.8	10	.	.	.	-0.5%
CC1(C)[C@H](C(=O)O)N2C(=O)C[C@H]2S1(=O)=O	.	.	-6.5	-1	0	2.0%
CCOc1ncccc1C(=O)N=C1SCCN1C(=O)c1cccnc1OCC	0.3	13	-3.8	-1	1	1.6%
CCN=C1S/C(=C\c2ccc(Sc3ccc(Cl)cc3)o2)C(=O)N1CC	0.7	-3	-5.2	13	3	4.5%
Cc1sc2ncn(CC(=O)N3CCN(c4ccc(F)cc4)CC3)c(=O)c2c1S(=O)(=O)N1CCCCC1	0.0	0	.	.	.	4.0%
O=c1[nH]c2ccccc2nc1CCc1ccccc1	1.4	8	1.1	1	-5	0.6%
Cc1noc(Cn2c(=O)c3cc4c(cc3n(CC(=O)Nc3ccccc3F)c2=O)OCO4)n1	1.1	-24	.	.	.	-1.0%
O=C(CSc1nnnn1-c1cccnc1)NCc1cccs1	1.6	2	-2.3	-2	-5	-0.4%

Quoted at random: 3 records from the list.
SMILES	TRPML1 agonist	TRPML1 blocker	D2 ag	CtBP-E1A blk	Six1-Eya2 inh	PINK1 modulator
CC1=C(C#N)C(NC(=O)C2CC2)(C(F)(F)F)C(=O)N1 (stereo unspecified)	0.2	-7	-3.4	6	-6	0.1%
O=S1(=O)CCOC[C@H](c2ccccc2)N1Cc1cccc(Cl)c1	0.1&-0.4	-1	-3.1	38	-13	2.7%
CCN=C1S/C(=C\c2ccc(Sc3ccc(Cl)cc3)o2)C(=O)N1CC	0.7	-3	-5.2	13	3	4.5%

Further entries follow:
SMILES	TRPML1 agonist	TRPML1 blocker	D2 ag	CtBP-E1A blk	Six1-Eya2 inh	PINK1 modulator
COc1ccccc1Oc1ccc(S(=O)(=O)N2CCCCC2)cc1NC(=O)CCNC(C)=O	0.7	-20	-4.1	12	-1	-2.0%
Cc1ccccc1OCCn1cc(/C=C(\C#N)C(=O)NCc2ccco2)c2ccccc21	5.5	60	1.1	-6	1	3.0%
CCOC(=O)c1ccc(NS(=O)(=O)c2ccc3c(c2)CCCN3C(C)=O)cc1	-0.5	6	0.0	0	4	-0.1%
Cc1ccc(S(=O)(=O)NCCC(=O)NC2CCCC2)cc1	0.2	-2	-1.5	2	3	0.4%[38.3 µM]
C=C(C)C1CC=C(C)/C(=N\NC(=O)CNc2cccc3ccccc23)C1 (stereo unspecified)	0.8	-12	-7.6	.	6	4.5%
CCOc1ccc(OCC)c(NS(=O)(=O)c2cc(-c3onc(C)c3C)ccc2OC)c1	-0.4	9	.	.	.	4.3%
CCCc1cnc2c(c1SCC(=O)Nc1ccccc1F)c(=O)n(C)c(=O)n2C	0.5	-14	.	.	.	3.0%
O=C(O)CCn1cc(-c2ccc(F)cc2)nc1-c1ccncc1	-0.3	-4	-1.5	8	9	0.1%
Cc1ccccc1N1CCN(CC(=O)Nc2nc(C)c(C(=O)N(C)C)s2)CC1	-0.1	-2	4.5	5	2	0.5%
CNC(=O)C(=O)Nc1nc(C23CC4CC(CC(C4)C2)C3)cs1	0.0	1	-3.1	-2	4	-0.4%
CCCC(=O)Nc1ccc2nc(SCC(=O)N3CCOCC3)sc2c1	2.3	0	.	.	.	-1.2%
C/C(=N\NC(=O)c1ccccc1)c1cccc(Br)c1	-0.1	3	-3.5	5	3	2.1%
